# Screens: PubChem BioAssay, Broad Institute
# MLL AF4-AF9 inh: MLL-AF4/AF9 protein interaction inhibition; 0.47% of 350,000 active; P42568; inhibition, % at 10 µM; AID 651704; AlphaScreen, biotin-AF4 peptide binding to FLAG-AF9;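 active means every replicate reaching a set inhibition limit, whatever the replicate mean, cut at about 25% in these data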;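 further: 0% = plate neutral control median and 100% = total signal loss; the record names both 10 and 1 µM as test concentration; the first replicate is given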
# Target sequence (P42568 whole entry, looked up): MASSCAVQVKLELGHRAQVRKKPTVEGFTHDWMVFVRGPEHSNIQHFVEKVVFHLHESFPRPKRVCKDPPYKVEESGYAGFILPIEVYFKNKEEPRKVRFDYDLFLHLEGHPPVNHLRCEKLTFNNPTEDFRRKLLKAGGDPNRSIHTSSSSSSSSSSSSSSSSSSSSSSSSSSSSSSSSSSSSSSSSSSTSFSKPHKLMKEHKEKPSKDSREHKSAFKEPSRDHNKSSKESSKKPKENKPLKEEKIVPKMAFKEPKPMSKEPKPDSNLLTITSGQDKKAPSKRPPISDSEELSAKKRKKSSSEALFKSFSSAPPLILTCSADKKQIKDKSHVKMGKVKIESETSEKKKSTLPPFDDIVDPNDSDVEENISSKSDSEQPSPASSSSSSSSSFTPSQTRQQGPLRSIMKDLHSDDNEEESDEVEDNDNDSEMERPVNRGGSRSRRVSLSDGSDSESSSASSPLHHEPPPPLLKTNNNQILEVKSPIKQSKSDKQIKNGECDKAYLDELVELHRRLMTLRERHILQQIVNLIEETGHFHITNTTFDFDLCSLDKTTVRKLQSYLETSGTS
# rRNA inh HTS: selective bacterial rRNA inhibition in E. coli | E. coli WT GFP vs humanized-ribosome RFP mutants, fluorescence, 24 h; active compounds read low; DMSO median 0, no signal -100 | GFP signal change (wild-type ribosome), % (test concentration not listed) | 1.6% of 350,000 active | AID 720706;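 active means significant combined selectivity score with lowered wild-type GFP, culture density cut under 30%, mutant RFP and density less affected; inactive means any of these conditions unmet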; further: one replicate is shown; some compounds called inactive have numbers as strong as hits
# rRNA inh HTS OD600: also measured in rRNA inh HTS; calls as there; OD600 change, %; measured here: OD600 growth;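 optical density of the mix in the first replicate; 0 = DMSO median and -100 = no signal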
# rRNA inh HTS RFP: second read-out of rRNA inh HTS, no call of its own (marks repeat the call); RFP signal change, %; measured here: RFP humanized mutant strains;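 first replicate; 0 = DMSO median and -100 = no signal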
# Numbers without * were called inactive; & = joins results of further samples.
# The first 2 records as a preview:
SMILES,MLL AF4-AF9 inh,rRNA inh HTS,rRNA inh HTS OD600,rRNA inh HTS RFP
Cc1noc(C)c1S(=O)(=O)Nc1ccc2c(c1)C(=O)N([C@@H](C)CO)C[C@@H](C)[C@@H](CN(C)C)OCCCC[C@H](C)O2,-3.5,1,0,-1.3
COc1cc(C(=O)NCC(c2cccs2)N2CCOCC2)ccc1OCc1ccc(Cl)cc1 (centres undefined),0.1,-11,-25,2.7

# The listing, repeating the preview:
SMILES,MLL AF4-AF9 inh,rRNA inh HTS,rRNA inh HTS OD600,rRNA inh HTS RFP
Cc1noc(C)c1S(=O)(=O)Nc1ccc2c(c1)C(=O)N([C@@H](C)CO)C[C@@H](C)[C@@H](CN(C)C)OCCCC[C@H](C)O2,-3.5,1,0,-1.3
COc1cc(C(=O)NCC(c2cccs2)N2CCOCC2)ccc1OCc1ccc(Cl)cc1 (centres undefined),0.1,-11,-25,2.7
O=C(c1ccc(F)cc1)N1CC(=O)N2[C@H](CO)[C@H](c3ccc(-c4ccccc4)cc3)[C@@H]2C1,-0.4,-1,6,-1.0
O=C(NCC1CC1)[C@@H]1[C@@H](CO)[C@@H]2Cn3c(cccc3=O)[C@@H]2N1Cc1cccc(F)c1,0.0,-1,-5,-2.3
C[C@H]1CN([C@@H](C)CO)C(=O)c2cc(Br)cnc2O[C@H]1CN(C)C(=O)NC1CCCC1,-0.7,3,10,-4.6
O=C(c1ccncc1)N1CC(=O)N2[C@@H](CO)[C@H](c3ccc(-c4ccccc4F)cc3)[C@@H]2C1,-4.2,4,4,-0.9
O=C(C[C@@H]1C[C@H]2c3cc(NC(=O)Nc4ccccc4)ccc3O[C@H]2[C@H](CO)O1)NCc1ccccn1,-1.5,1,5,1.5
CCCC#Cc1ccc([C@H]2[C@@H](CO)N[C@@H]2CN(C(C)=O)C2CCCC2)cc1,2.1,2,-2,4.1
C[C@@H]1CN([C@@H](C)CO)C(=O)c2cc(NS(=O)(=O)c3ccc(Cl)cc3)ccc2O[C@@H](C)CCCCO[C@@H]1CN(C)Cc1ccc2c(c1)OCO2,-7.5,-3,-27,3.9
CCCNC(=O)C[C@@H]1C[C@@H]2c3cc(NC(=O)C4CCC4)ccc3O[C@@H]2[C@H](CO)O1,-2.8,4,13,-0.7
CCCNC(=O)N1CC(=O)N2[C@@H](CO)[C@H](c3ccc(-c4ccc(C)cc4)cc3)[C@@H]2C1,-1.5,2,1,-7.7
O=C(NCC1CC1)[C@H]1[C@H](CO)[C@H]2Cn3c(ccc(-c4cccc(F)c4)c3=O)[C@H]2N1CC1CC1,0.5,-2,-8,8.0
COc1ccccc1S(=O)(=O)N[C@H]1CC[C@H](CC(=O)NCc2cc(F)cc(F)c2)O[C@H]1CO,-3.7,3,4,-3.3
CCC(=O)N[C@@H]1CC[C@@H](CC(=O)NCc2cc(F)cc(F)c2)O[C@H]1CO,-1.3,3,6,-1.7
C[C@@H]1CN([C@@H](C)CO)C(=O)Cc2cc(NS(=O)(=O)c3cn(C)cn3)ccc2O[C@@H]1CN(C)Cc1ccc(C(F)(F)F)cc1,-3.1,-2,-6,0.3
CCC(=O)N1CC(=O)N2[C@H](CO)[C@H](c3ccc(-c4cccnc4)cc3)[C@H]2C1,-2.0,3,-13,-1.8
O=C(Nc1ccc(F)cc1)N1CC(=O)N2[C@H](C1)[C@@H](c1ccc(C#Cc3ccc(F)cc3)cc1)[C@@H]2CO,-0.4,-4,-13,28
O=C(Nc1ccccc1)N[C@@H]1CC[C@@H](CCn2cc(-c3ccccc3F)nn2)O[C@H]1CO,-2.1,2,5,-1.9
C[C@H](NC(=O)C[C@@H]1C[C@H]2c3cc(NC(=O)C4CCC4)ccc3O[C@H]2[C@@H](CO)O1)c1ccccc1,-0.8,-3,-3,-0.8
O=C(C[C@@H]1C[C@@H]2c3cc(NC(=O)NC4CCCC4)ccc3O[C@@H]2[C@H](CO)O1)NCc1ccccn1,0.2,4,11,-1.6
CCC(=O)N1CC(=O)N2[C@@H](CO)[C@H](c3ccc(-c4ccc(C(=O)N(C)C)cc4)cc3)[C@@H]2C1,-3.1,5,9,-3.6
CNC[C@H]1Oc2ccc(NC(=O)NC(C)C)cc2C(=O)N([C@H](C)CO)C[C@@H]1C,-3.6,0,-3,-0.4
CNC[C@@H]1Oc2ccc(NC(=O)Cc3cn(C)c4ccccc34)cc2CC(=O)N([C@@H](C)CO)C[C@H]1C,5.8,1,0,-0.6
O=S(=O)(c1cccc(Cl)c1)N1[C@@H]2CNC[C@H]1C2c1ccc(-c2ccncc2)cc1 (some centres undefined),-0.9&-6.3,-5&-6,-1&-1,-0.9&0.2
C[C@@H]1CCCCO[C@H](CN(C)C(=O)Nc2ccccc2)[C@H](C)CN([C@@H](C)CO)C(=O)c2cc(NC(=O)NC3CCCCC3)ccc2O1,-0.9,-3,-2,1.5
C[C@@H]1CCCCO[C@H](CN(C)Cc2ccccc2)[C@H](C)CN([C@H](C)CO)C(=O)c2cc(NS(=O)(=O)c3cn(C)cn3)ccc2O1,-7.5,2,6,-2.9
CC=Cc1ccc2n(c1=O)C[C@@H]1[C@@H](CO)[C@H](C(=O)NCC3CC3)N(CCC)[C@H]21 (mixture of isomers),-1.7,3,1,-1.1
COCC(=O)N1CC(=O)N2[C@@H](CO)[C@@H](c3ccc(C#CC(C)C)cc3)[C@@H]2C1,-4.7,0,2,-1.3
C[C@@H]1CN([C@@H](C)CO)C(=O)c2cc(NC(=O)CCCN(C)C)ccc2O[C@@H]1CN(C)Cc1ccc(Oc2ccccc2)cc1,13,2,1,6.1
CC(=O)N1CC2(C1)[C@H](c1ccc(-c3cccc(F)c3)cc1)[C@@H](CO)N2CC1CC1,-2.8,-6,-6,-1.2
CCCNC(=O)N1CC(=O)N2[C@H](C1)[C@H](c1ccc(-c3ccncc3)cc1)[C@@H]2CO,-2.7,-1,18,1.2
Cc1ccc(S(=O)(=O)Nc2ccc3c(c2)C(=O)N([C@@H](C)CO)C[C@H](C)[C@@H](CN(C)C(=O)C2CCCCC2)OCCCC[C@H](C)O3)cc1,0.4,-6,-13,4.5
O=C(c1cnccn1)N1CC(=O)N2[C@H](CO)[C@H](c3ccc(-c4ccccc4)cc3)[C@@H]2C1,-9.1,-2,-9,2.2
C/C=C/c1ccc([C@@H]2[C@H](CO)N(C(=O)CN(C)C)C23CN(C(=O)C2CCCCC2)C3)cc1,1.2,3,3,7.8
N#C[C@@H]1[C@@H](c2ccccc2-c2cccc(F)c2)[C@@H](CO)N1C(=O)NC1CCCCC1,0.2,2,-35,-7.8
C[C@H]1CN([C@@H](C)CO)C(=O)c2cccc(NC(=O)c3cnccn3)c2O[C@H]1CN(C)Cc1ccc(C(=O)Nc2ccccc2N)cc1,-2.7,-3,2,-4.0

# Full records, looked up by structure. Order of screens: MLL AF4-AF9 inh | rRNA inh HTS | rRNA inh HTS OD600 | rRNA inh HTS RFP
# Shown for Cc1noc(C)c1S(=O)(=O)Nc1ccc2c(c1)C(=O)N([C@@H](C)CO)C[C@@H](C)[C@@H](CN(C)C)OCCCC[C@H](C)O2 → -3.5 | 1 | 0 | -1.3
# Shown for C[C@@H]1CCCCO[C@H](CN(C)Cc2ccccc2)[C@H](C)CN([C@H](C)CO)C(=O)c2cc(NS(=O)(=O)c3cn(C)cn3)ccc2O1 → -7.5 | 2 | 6 | -2.9
# Shown for O=S(=O)(c1cccc(Cl)c1)N1[C@@H]2CNC[C@H]1C2c1ccc(-c2ccncc2)cc1 (some centres undefined) → -0.9&-6.3 | -5&-6 | -1&-1 | -0.9&0.2
# Shown for C[C@H]1CN([C@@H](C)CO)C(=O)c2cc(Br)cnc2O[C@H]1CN(C)C(=O)NC1CCCC1 → -0.7 | 3 | 10 | -4.6
# Shown for O=C(Nc1ccccc1)N[C@@H]1CC[C@@H](CCn2cc(-c3ccccc3F)nn2)O[C@H]1CO → -2.1 | 2 | 5 | -1.9

# (continued)
SMILES,MLL AF4-AF9 inh,rRNA inh HTS,rRNA inh HTS OD600,rRNA inh HTS RFP
CCCNC(=O)N1CC(=O)N2[C@H](CO)[C@@H](c3ccc(-c4ccc(F)cc4)cc3)[C@@H]2C1,-9.6,0,-11,0.9
O=C(Nc1cc(F)ccc1F)N1CC(=O)N2[C@H](C1)[C@@H](c1ccc(C#CC3CCCC3)cc1)[C@@H]2CO,5.4,5,6,-0.4
O=C(Nc1ccc(C(F)(F)F)cc1)N1C[C@@H]2N[C@H](C1)C2c1ccc(-c2ccccc2)cc1 (some centres undefined),-0.5&1.3,-55&-55,-76&-80,-6.8&-17
COc1ccc2c3c([nH]c2c1)[C@H](CO)N(C(=O)Nc1ccc(F)cc1)CC31CCN(S(=O)(=O)c2ccccc2)CC1,-1.8,-3,6,1.8
CCC(=O)N1CC[C@@H]2[C@H](CO)Nc3ccc(C#Cc4ccccc4F)cc3[C@@H]21,1.6,-4,-5,1.9
CCCNC(=O)[C@H]1[C@H](CO)[C@H]2Cn3c(ccc(-c4cncnc4)c3=O)[C@H]2N1C(=O)c1ccccc1F,-0.8,2,11,1.7
CO[C@@H]1CN(C)C(=O)c2ccc(NC(=O)CC(F)(F)F)cc2OC[C@H](C)N(C(=O)C2CC2)C[C@H]1C,-6.1,0,-2,2.8
COc1ccc2c3c(n(C)c2c1)[C@@H](CO)NCC31CN(C(=O)CC2CC2)C1,-11,4,4,0.9
Cc1noc(C)c1NC(=O)N(C)C[C@H]1OCCCC[C@H](C)Oc2ccc(NC(=O)c3ccccc3)cc2C(=O)N([C@@H](C)CO)C[C@@H]1C,-0.6,-1,-5,-0.2
O=C(Nc1ccccc1F)N1CC(=O)N2[C@H](CO)[C@H](c3ccc(C#CC4CC4)cc3)[C@H]2C1,-1.3,2,-8,-2.1
CCC(=O)N1CC(=O)N2[C@H](CO)[C@H](c3ccc(C#Cc4cccc(OC)c4)cc3)[C@@H]2C1,-1.9,-1,0,-2.0
Cc1noc(C)c1NC(=O)Nc1ccc2c(c1)C(=O)N([C@@H](C)CO)C[C@@H](C)[C@@H](CN(C)S(=O)(=O)c1ccccc1)OCCCC[C@H](C)O2,2.0,-1,-14,-4.0
C[C@H]1[C@@H](c2ccccc2)Oc2ccc(Cl)cc2S(=O)(=O)N1Cc1cccc(F)c1,-0.7,3,15,3.9
COc1cccc(S(=O)(=O)N[C@@H]2C=C[C@H](CC(=O)NCc3ccccc3)O[C@@H]2CO)c1,-9.4,1,-1,-0.8
CC(=O)N1[C@H](CO)[C@H](c2ccc(C3=CCCC3)cc2)[C@H]1CNC(=O)CC1CC1,-3.4,0,-1,-3.5
CN1[C@@H]2c3ccc(/C=C/c4ccccc4)c(=O)n3C[C@@H]2[C@@H](CO)[C@@H]1C(=O)NCCN1CCCC1,-2.4,0,3,3.5
C[C@@H]1CCCCO[C@H](CN(C)S(=O)(=O)c2ccccc2)[C@H](C)CN([C@@H](C)CO)C(=O)c2cc(NC(=O)C3CCCCC3)ccc2O1,-1.1,-5,-9,-1.3
O=C(C1CCCC1)N1CC(=O)N2[C@@H](CO)[C@H](c3ccc(-c4ccccc4F)cc3)[C@@H]2C1,0.6,1,-1,6.2
CC=Cc1ccc2n(c1=O)C[C@H]1[C@H](CO)[C@@H](C(=O)NCC)N(Cc3ccccc3Cl)[C@@H]21 (mixture of isomers),-18,-8,-8,0.0
CO[C@H]1CN(C)C(=O)c2cc(NC(=O)CC(F)(F)F)ccc2OC[C@@H](C)NC[C@@H]1C,-4.7,1,4,3.8
COCC#Cc1ccc([C@@H]2[C@@H](CO)N3C(=O)CN(C(=O)Nc4ccc(F)cc4)C[C@@H]23)cc1,-3.6,-3,2,2.1
COc1ccc(-c2ccc([C@@H]3[C@@H](CO)N4C(=O)CNC[C@H]34)cc2)cc1,-1.8,2,2,1.3
O=C1CN(Cc2ccc(F)cc2)C[C@@H]2[C@H](c3ccc(-c4ccccc4F)cc3)[C@H](CO)N12,4.0,-6,-36,9.1
O=C(c1ccccn1)N1C[C@@H]2N[C@H](C1)C2c1ccc(-c2ccccc2F)cc1 (some centres undefined),-1.2&-1.1,-3&1,-1&1,0.3&0.8
C[C@@H](NC(=O)[C@H]1[C@H](CO)[C@H]2Cn3c(ccc(C4=CCCC4)c3=O)[C@H]2N1C)c1ccccc1,2.4,6,7,1.2
O=C1N[C@H](Cc2ccccc2)COCn2nncc2CC[C@@H]1Cc1ccccc1,-1.9,1,1,0.2
COc1ccc2c3c(n(C)c2c1)[C@@H](CO)N(C(=O)Nc1ccc(F)cc1)CC31CCN(Cc2cccnc2)CC1,39*,-2,1,3.1
CO[C@@H]1CN(C)C(=O)c2cc(NS(=O)(=O)c3ccc(Cl)cc3)ccc2OC[C@H](C)N(C)C[C@@H]1C,0.8,2,5,0.3
CN1[C@@H]2c3ccc(-c4cncnc4)c(=O)n3C[C@@H]2[C@@H](CO)[C@@H]1C(=O)N1CCc2ccccc2C1,-1.8,-1,6,1.2
CO[C@@H]1CN(C)C(=O)c2cc(NC(C)=O)ccc2OC[C@H](C)N(Cc2cncnc2)C[C@H]1C,-3.6,2,0,-2.5
Cc1noc(C)c1NC(=O)N(C)C[C@H]1OCCCC[C@H](C)Oc2ccc(NC(=O)c3ccccc3)cc2C(=O)N([C@@H](C)CO)C[C@H]1C,0.1,2,2,-1.8
CCN(C[C@H]1[C@@H](c2ccccc2)[C@@H](CO)N1CC1CC1)C(=O)c1ccccc1F,-1.6,-1,-1,0.0
C/C=C/c1ccc2c(c1)O[C@H](CN(C)C(=O)Nc1ccc(F)cc1)[C@@H](C)CN([C@H](C)CO)S2(=O)=O,5.5,-4,-23,-5.0

# These rows are one share of the data. The share of hits here may be higher or lower than overall.
